# Screening results as filed in PubChem.
# YopH PTP inh: inhibitors of Yersinia enterocolitica YopH tyrosine phosphatase; inhibition, %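 (about 10 µM by stock and volumes)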; actives 0.16% (n = 140,000); fluorescence Ex485/Em525;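 active = inhibition of 50% or more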;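 note: controls were vehicle for no effect and minimum signal wells for full effect; inactives centre near -20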
# Mtb bLac sens: beta-lactam sensitization of Mtb H37Rv | AID 434955 | actives 0.27% (n = 330,000) | inhibition, % at 25 µM | M. tuberculosis H37Rv growth with meropenem, percent inhibition; hits of this screen are not shown here;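 active = about 74% or more and at least 40 points above the plate without the antibiotic, then above 30% in a dose series; inconclusive = first-round hits that could not be retested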;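 note: growth measured after seven days incubation then overnight dye step; 0% = bacteria only wells and 100% = bacteria with antibiotic; twin plates without the antibiotic show which effects depend on it; some results filed as inactive read as strong as hits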
# Mtb H37Rv: M. tuberculosis H37Rv growth inhibitors, H37Rv strain (AID 1626). M. tuberculosis H37Rv growth inhibition; higher % means a stronger effect. actives 0.95% (n = 220,000). inhibition, % at 10 µM, or IC50 in µM where a hit was titrated;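 active = confirmed in a dose series; inconclusive = inhibition above 80% but not taken into the dose series; inactive = below 80% or under 30% at every dose of the series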;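 note: bacteria incubated seven days before Alamar blue readout; 0% = bacteria only wells and 100% = bacteria with antibiotic wells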
# RecA splice inh: blocks M. tuberculosis RecA intein splicing; P9WHJ3; cell-free RecA intein splicing, fluorescence; inhibition, %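 (about 9 µM by stock and volumes)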; actives 0.75% (n = 290,000); in the data active = inhibition above about 30%; inconclusive = no clear call, values can overlap the other calls;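 note: 0% = vehicle wells and 100% = reference inhibitor control wells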
# Target sequence (P9WHJ3 whole entry, looked up, canonical isoform): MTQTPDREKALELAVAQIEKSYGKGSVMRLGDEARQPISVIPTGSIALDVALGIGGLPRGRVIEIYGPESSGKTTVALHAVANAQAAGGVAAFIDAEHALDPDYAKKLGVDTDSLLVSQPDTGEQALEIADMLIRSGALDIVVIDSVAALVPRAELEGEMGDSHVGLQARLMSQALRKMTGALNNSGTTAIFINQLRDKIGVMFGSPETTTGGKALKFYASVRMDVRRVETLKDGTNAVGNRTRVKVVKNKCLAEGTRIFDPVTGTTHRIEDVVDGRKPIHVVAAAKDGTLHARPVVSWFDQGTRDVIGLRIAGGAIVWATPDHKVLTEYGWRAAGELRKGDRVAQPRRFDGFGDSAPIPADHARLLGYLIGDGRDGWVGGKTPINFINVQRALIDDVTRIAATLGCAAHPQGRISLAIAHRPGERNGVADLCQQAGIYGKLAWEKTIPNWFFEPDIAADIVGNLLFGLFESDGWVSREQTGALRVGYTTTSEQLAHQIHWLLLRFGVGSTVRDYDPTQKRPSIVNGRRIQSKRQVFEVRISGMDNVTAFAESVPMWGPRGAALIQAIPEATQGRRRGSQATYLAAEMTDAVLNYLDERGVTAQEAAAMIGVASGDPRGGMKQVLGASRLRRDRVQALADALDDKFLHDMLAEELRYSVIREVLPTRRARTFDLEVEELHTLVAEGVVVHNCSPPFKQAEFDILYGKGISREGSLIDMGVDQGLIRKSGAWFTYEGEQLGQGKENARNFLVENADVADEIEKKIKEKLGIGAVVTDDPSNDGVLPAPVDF
# Arbovirus inh: blocks arbovirus infection; arbovirus infection cell-based antiviral screen; inhibition, % at 10 µM; actives 0.37% (n = 200,000); AID 1251;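 active = inhibition from about 30%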;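 note: bluetongue infection of BSR cells; cell survival read as ATP light after 72 h; 0% = infected wells without compound and 100% = uninfected wells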
# Arbovirus inh repeat: also measured in Arbovirus inh; calls as there; inhibition, %; measured here: 10K subset replicate screen; many hits read low in the repeat;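 first of two repeat runs on a subset; 0% = infected and 100% = uninfected wells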
# Starred values were filed as active, the others as inactive; ? = inconclusive; nt = no result given; & = joins results of further samples. A portion of the library, so the mix of outcomes need not match the whole.
SMILES,YopH PTP inh,Mtb bLac sens,Mtb H37Rv,RecA splice inh,Arbovirus inh,others
COc1ccc(C(=O)N/N=C/c2c(CO)cnc(C)c2O)cc1,nt,0,3%,-16,-2,
CCOc1cccc2c1OC1(C)CC2NC(=O)N1c1cccc(F)c1 (stereo not drawn),7,6,0%,2.1,-3,
COc1ccc(NS(=O)(=O)c2ccc(OC)c(NC(=O)CCC3CCCC3)c2)cc1,-21,6,-6%,0.0,3,
O=C(O)c1cc(NC(=O)c2ccc(Br)cc2)cc(NC(=O)c2ccc(Br)cc2)c1,nt,-2,nt,4.1,nt,
COc1ccccc1N1CCN(C(C)C(=O)Nc2ccc(S(=O)(=O)N3CCOCC3)cc2)CC1 (stereo not drawn),nt,-4,-8%,2.2,0,
CCN(CC)C(=O)Cn1cc(S(=O)(=O)CC(=O)N2CCCCCC2)c2ccccc21,nt,-5,2%,-0.7,0,
N#C/C(=C\c1ccccc1[N+](=O)[O-])C(=O)Nc1ccc(S(N)(=O)=O)cc1,nt,2,-14%,-2.6,nt,
Cc1cc(F)ccc1S(=O)(=O)N1CCCOC1CNC(=O)C(=O)NCc1ccc2c(c1)OCO2 (stereo not drawn),nt,-6,nt,1.8,nt,
CCn1nnc(NC(=O)COc2ccc([N+](=O)[O-])cc2)n1,nt,-8,-8%,-5.5,nt,
Cc1cc(C)n2nc(SCC(=O)c3ccc[nH]3)nc2n1,-16,5,7%,0.5,9,
CCCCN(C(=O)CN1C(=O)C2CC=CCC2C1=O)c1c(N)n(CCC)c(=O)[nH]c1=O (stereo not drawn),-1,7,-15%,2.7,7,
COc1ccc(-c2nn(-c3ccccc3)cc2/C=N/Nc2ccc3ccccc3n2)cc1OC,-16,82,18%,0.3,5,

# Continued, starting with the last 2 of the part before.
SMILES,YopH PTP inh,Mtb bLac sens,Mtb H37Rv,RecA splice inh,Arbovirus inh,others
CCCCN(C(=O)CN1C(=O)C2CC=CCC2C1=O)c1c(N)n(CCC)c(=O)[nH]c1=O (stereo not drawn),-1,7,-15%,2.7,7,
COc1ccc(-c2nn(-c3ccccc3)cc2/C=N/Nc2ccc3ccccc3n2)cc1OC,-16,82,18%,0.3,5,
COC(=O)CCC(=O)Nc1cc(Cl)cc(Cl)c1,nt,1,-4%,1.6,6,
COc1ccc(CCNC(=O)COc2ccc(S(=O)(=O)N3CCOCC3)cc2)cc1OC,-4,-12,1%,0.1,-1,
Cc1cccc(C(=O)Oc2ccc(/C=N/O)cc2)c1,-12,1,8%,7.3,-15,
Cc1ccc(S(=O)(=O)NC(C(=O)OCC(=O)NC(=O)c2cccn2C)C(C)C)cc1 (stereo not drawn),-16,0,8%,-0.5,4,
CCC(Oc1ccccc1OC)C(=O)Nc1ccc2c(c1)OCO2 (stereo not drawn),nt,-13,nt,5.6,nt,
Cc1cccc(Cn2cc(/C=C/[N+](=O)[O-])c3ccccc32)c1,-36,4,0%,6.2,-36,
Cc1cc(=O)oc2cc(NC(=O)C(CCCN=C(N)N)NC(=O)OCc3ccccc3)ccc12 (stereo not drawn),nt,68,nt,6.2,nt,
O=S(=O)(N/N=C/c1ccc2c(c1)OCCO2)c1ccccc1,-4,-10,-7%,0.8,-9,
CCOC(Cn1c(CCCO)nc2ccccc21)OCC,-23,6,-9%,1.8,2,
COc1ccc(N2CCN(C(CNS(=O)(=O)c3ccccc3)c3ccccc3)CC2)cc1 (stereo not drawn),nt,5,nt,-0.4,nt,
FC(F)(F)c1cnc(NNC(=S)Nc2ccc(Cl)cc2)c(Cl)c1,-13,0,36%,1.5,-36,
O=C(CCCc1c[nH]c2ccccc12)Nc1ncccc1O,nt,-5,nt,0.0,nt,
CN(Cc1cnn(C)c1)Cc1nc(C(c2ccccc2)c2ccccc2)no1,nt,-1,5%,-1.2,8,
COc1cccc(CNS(=O)(=O)c2c(C)nc3scc(C)n3c2=O)c1,nt,4,nt,-0.5,nt,
OC(CNCc1ccccc1Cl)C(F)(F)F (stereo not drawn),nt,-5,4%,-2.4,3,
CCc1ccc(NC(=O)C(C)OC(=O)C2CCN(c3ccc(C(F)(F)F)cn3)CC2)cc1 (stereo not drawn),nt,-9,nt,-2.2,nt,
CN(C)C(=O)c1ccccc1Sc1cc(Cl)ccc1Cl,-31,6,-3%,0.8,-8,
O=C(CCNC(=O)N1CCn2c1nc1ccccc12)NCc1ccc(F)cc1,nt,1,nt,0.5,nt,
CN(C(=O)COC(=O)C1CCN(S(=O)(=O)c2cccs2)CC1)c1ccccc1,nt,-6,-3%,-1.1,3,
O=C1CC(c2cccc(F)c2)c2c(c3ccccc3[nH]c2=O)O1 (stereo not drawn),nt,1,2%,-6.6,19,
O=C(CN1CCN(c2ccc(F)cc2)CC1)N1N=CCC1c1ccccc1 (stereo not drawn),-37,9,0%,nt,10,
CCn1c(C)c(C)c2cc(C(=O)NCCN3CCOCC3)ccc21,nt,3,nt,0.6,nt,
O=c1c([N+](=O)[O-])c(N2CCCCCC2)c2ccccc2n1-c1ccccc1,-40,-3,2%,-0.3,-10,
O=S1(=O)CCN(Cc2csc(-c3cccs3)n2)CC1,nt,2,-8%,-0.2,nt,
CCc1nc2sc3c(c2c(=O)n1N)CC(C)(C)OC3,-21,6,1%,2.7,1,
Cc1cccc(NC(=O)CCc2c(C)nc3ncnn3c2C)n1,-6,0,-2%,-1.4,1,
CC(C)Cn1c(-c2ccccc2F)n[nH]c1=S,-42,13,2%,5.0,-5,
CC(Oc1cc2oc(=O)c3c(c2cc1Cl)CCCC3)C(=O)NCc1ccccn1 (stereo not drawn),nt,97,nt,-3.4,nt,
CC1CCc2nc(NC(=O)c3ccc(S(=O)(=O)N4CCCc5ccccc54)cc3)sc2C1 (stereo not drawn),5,6,-8%,-1.7,-4,
CC(C)CC1NC(=O)N(CC(=O)c2ccc3c(c2)OCCO3)C1=O (stereo not drawn),1,-7,-3%,0.5,10,
CCN=c1scc(C)n1/N=C/c1cc(Br)c(O)c(OC)c1,nt,0,13%,-15,0,
O=C(COC(=O)c1cc(Cl)ccc1Cl)NCCN1C(=O)CSC1=O,-12,4,-6%,0.2,1,
COc1ccc(C(=O)/C=C/C(=O)N(Cc2ccc3c(c2)OCO3)C(C(=O)NC2CCCCC2)c2ccncc2)c(O)c1 (stereo not drawn),-29,7,6%,6.0,-17,
CCOC(=O)c1cnc(-n2nc(C)cc2C)nc1NNc1ncc(-c2ccccc2)cn1,nt,98,?,3.7,nt,
O=[N+]([O-])c1cc(C(F)(F)F)cc([N+](=O)[O-])c1Sc1n[nH]c(C(F)(F)F)n1,nt,70,-6%,28,nt,
Cc1cc(=O)[nH]c(SCC(=O)NC2CCCc3ccccc32)n1 (stereo not drawn),nt,2,-7%,0.7,nt,
Cc1ccc(NC(=O)C(=O)NCc2ccccn2)cc1,nt,-4,-4%,nt,-2,
O[C@@H]1COC(Nc2ccc(N=Nc3ccccc3)cc2)C[C@@H]1O (stereo partly drawn),nt,88,?,2.4,nt,
CC[C@H]1CN(C)CCc2c([nH]c3ccccc23)C(=O)C[C@@H]1/C(=C\OC)C(=O)OC,nt,-5,-5%,-0.1,nt,
CCCCn1c(N)c(N(CCC(C)C)C(=O)C2CCCO2)c(=O)[nH]c1=O (stereo not drawn),nt,-11,nt,-1.6,nt,
CCOC(=O)/C(C#N)=C\c1ccco1,-40,3,0%,1.9,0,
O=C1C2C3C=CC(C3)C2C(=O)N1c1nccs1 (stereo not drawn),22,-20,-2%,nt,1,
CN1CC[C@]2(c3cccc(O)c3)Cc3nc4ccccc4cc3C[C@H]2C1,nt,nt,-6%&4%,nt,-8,
Cc1ccc(NC(=O)CSc2nnc(Cc3cccn3C)n2-c2ccc(F)cc2)cc1,14,-2,1%,6.3,5,
CCOC(=O)C1CCCCN1Cc1cn[nH]c1-c1ccc(F)cc1F (stereo not drawn),nt,-9,0%,-4.6,3,
CCCCn1c(O)c(C(C)=NCCN2CCOCC2)c(=O)[nH]c1=O,6,11,-4%,1.5,7,
CCOC(=O)c1sc(C)c2c(=O)n(CC(=O)c3ccc(Br)cc3)nnc12,-42,99,69%,-2.6,4,
O=C(c1ccc2c(c1)OCO2)C1CCCN(Cc2ccc3cccc(F)c3n2)C1 (stereo not drawn),nt,0,-9%,3.2,0,
COc1cccc(-c2cc(C(=O)N3N=C(C)CC3(O)C(F)F)c3ccccc3n2)c1 (stereo not drawn),nt,-1,-2%,-0.5,3,
N=c1oc2ccccc2cc1C(=O)Nc1ccc(F)cc1,nt,3,nt,0.2,nt,
Cc1coc2c(C)c3oc(=O)c(CCC(=O)N(C)CC(=O)O)c(C)c3cc12,nt,-4,nt,-1.3,nt,
O=C(CSC1=NS(=O)(=O)c2cc(Cl)ccc2N1)NCc1ccc(F)cc1,nt,-8,nt,-0.1,nt,
CCN(CC)c1ccc(NC(=O)CN2C(=O)CC(C)(C)S(=O)(=O)c3ccccc32)c(C)c1,-28,-5,17%,nt,10,Arbovirus inh repeat=16
CCCCOC(=O)c1ccc(NC(=O)c2cnc3n(c2=O)CCS3)cc1,-39,5,-7%,-3.0,19,
OCCn1c(Cl)nc2ccccc21,33,-5,-5%,0.0,-1,
Cc1cc2oc(=O)cc(CN3CCC(C)CC3)c2cc1C,nt,?,nt,1.7,nt,
Cc1ccc(CN2CCN(Cc3ccc(OCCO)cc3)CC2CCO)o1 (stereo not drawn),nt,1,-3%,-0.2,4,
COC(=O)c1c(C)nc2ccccc2c1C(=O)O,-3,-5,nt,0.3,-3,
CN1CCN(c2ccc(Cl)cc2NC(=O)c2ccc([N+](=O)[O-])cc2)CC1,nt,-8,11%,-2.0,nt,
COc1ccccc1COCC(O)CN(Cc1ccco1)Cc1ccccc1O (stereo not drawn),-12,5,11%,4.3,23,
# Additional compounds.
SMILES,YopH PTP inh,Mtb bLac sens,Mtb H37Rv,RecA splice inh,Arbovirus inh,others
O/N=C(\CN1CCCCC1)c1ccccc1,nt,-3,nt,-2.4,nt,
CC(C)(C)C(=O)CSc1nc2c(c(-c3cccs3)c1C#N)CCC2,-6,4,11%,-2.1,0,
CN(C)S(=O)(=O)c1ccc(NC(=O)C2CC(=O)N(Cc3ccccc3)C2)cc1 (stereo not drawn),nt,-2,-6%,-3.1,-6,
Cc1cccc(N(C(=O)CCC(=O)Nc2ccccn2)C(C(=O)NC(C)C)c2ccc(O)cc2)c1 (stereo not drawn),-36,10,-2%,1.8,11,
O=C(Cn1[nH]c(=O)c2ccccc2c1=O)N1CC=C(c2ccccc2)CC1,-8,5,-1%,-0.8,-2,
CCOC(=O)c1ccc2[nH]c3c(c2c1)CCCC3O (stereo not drawn),nt,12,0%,nt,14,
CCOP(=O)(OCC)C(c1ccccc1)N(C)C=O (stereo not drawn),-39,0,1%,-1.5,10,
O=C(CCCc1ccccc1)N=C1SC2CS(=O)(=O)CC2N1c1ccccc1F (stereo not drawn),nt,0,nt,0.6,nt,
Cc1ccccc1COC(=O)CN1C(=O)NC2(CCCC2)C1=O,nt,3,nt,-0.6,nt,
O=C(COc1cccc2cccnc12)NCC(F)(F)F,-25,-20,-1%,3.9,6,
O=C1NCCCC2c3cc(O)c4ccccc4c3OC12N1CCCCC1 (stereo not drawn),75*,-3,-1%,nt,-46,

# 13 compounds from above, arranged by length of the SMILES, rising:
SMILES,YopH PTP inh,Mtb bLac sens,Mtb H37Rv,RecA splice inh,Arbovirus inh,others
O/N=C(\CN1CCCCC1)c1ccccc1,nt,-3,nt,-2.4,nt,
COC(=O)c1c(C)nc2ccccc2c1C(=O)O,-3,-5,nt,0.3,-3,
O=C(COc1cccc2cccnc12)NCC(F)(F)F,-25,-20,-1%,3.9,6,
CCOC(=O)c1ccc2[nH]c3c(c2c1)CCCC3O (stereo not drawn),nt,12,0%,nt,14,
Cc1cc2oc(=O)cc(CN3CCC(C)CC3)c2cc1C,nt,?,nt,1.7,nt,
Cc1ccccc1COC(=O)CN1C(=O)NC2(CCCC2)C1=O,nt,3,nt,-0.6,nt,
O=C1NCCCC2c3cc(O)c4ccccc4c3OC12N1CCCCC1 (stereo not drawn),75*,-3,-1%,nt,-46,
CC(C)(C)C(=O)CSc1nc2c(c(-c3cccs3)c1C#N)CCC2,-6,4,11%,-2.1,0,
O=C(CCCc1ccccc1)N=C1SC2CS(=O)(=O)CC2N1c1ccccc1F (stereo not drawn),nt,0,nt,0.6,nt,
O=C(Cn1[nH]c(=O)c2ccccc2c1=O)N1CC=C(c2ccccc2)CC1,-8,5,-1%,-0.8,-2,
CN1CCN(c2ccc(Cl)cc2NC(=O)c2ccc([N+](=O)[O-])cc2)CC1,nt,-8,11%,-2.0,nt,
CN(C)S(=O)(=O)c1ccc(NC(=O)C2CC(=O)N(Cc3ccccc3)C2)cc1 (stereo not drawn),nt,-2,-6%,-3.1,-6,
Cc1cccc(N(C(=O)CCC(=O)Nc2ccccn2)C(C(=O)NC(C)C)c2ccc(O)cc2)c1 (stereo not drawn),-36,10,-2%,1.8,11,
